Screens deposited in PubChem by National Center for Advancing Translational Sciences (NCATS).
Prx2 Sm inh: inhibitors of Schistosoma mansoni peroxiredoxin 2 | S. mansoni Prx2 activity coupled to TGR/GSH (TGR is thioredoxin glutathione reductase), NADPH fluorescence loss, qHTS; some inactives read as strong as hits | actives 0.07% (n = 65,000) | Potency, µM; active means full or partial inhibition curve with a strong effect at the top dose; inconclusive means weaker partial or single-point curve; inactive means no accepted curve; also: series up to 57 µM; many of its hits are not listed in these tables
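Activity is read as the drop in NADPH fluorescence (365/450 nm), recorded every 30 sec for 8 min after H2O2 addition. Prx2 is coupled to TGR-driven NADPH oxidation through glutathione, in phosphate buffer pH 7.4.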
LT uptake inh: anthrax lethal toxin internalization inhibition | Cells, anthrax lethal toxin internalization, FRET ratio (460/530) | Potency, µM (top dose mostly 40 µM), for inactives: at the top dose activity change, negative = inhibition, hits mostly inhibitors | actives 0.67% (n = 70,000); active = well fitted falling ratio curve with the 530 nm signal flat; inconclusive = other ratio curves, or a change in one channel alone; inactive = flat curves in the ratio and both channels; the % refers to the ratio; also: % is scaled to controls: 0 for no effect and ±100 for the full control effect; nearly all actives have a fitted effect of over 50% in size; tested in ME-180 cells; beta-lactamase reporter
Active calls of the source: *; ? = inconclusive; · = not tested or not shown; & = joins results of further samples; [ ] = another dose, or the depositor's remark. Potency is read from the fitted curve at half-maximal effect. Only part of the results is shown. The share of hits here may be higher or lower than overall.

SMILES	Prx2 Sm inh	LT uptake inh
Cn1c(=O)n(CC(=O)OCc2ccccc2)c(=O)c2c1nc1n2CCCN1C1CCCCC1	>57	-14.3%
Cc1ccc(C)c(NC(=O)CS(=O)(=O)c2cn(C)c3ccccc23)c1	>57	-4.2%
CC1(C)Cc2ccccc2-c2nnc(-c3cccc(O)c3)n21	>57	-6.2%
Cc1ccccc1NC(=O)CC1SCCNC1=O (stereo not given)	>57	8.6%
COc1ccc(S(=O)(=O)N(CCCN2CCOCC2)Cc2ccc(OC)c(OC)c2)cc1	>57	-9.0%
Cc1ccc(NC(=O)CSc2n[nH]c(-c3ccncc3)n2)cc1C	>57&>57	12.7%&11.3%
CC1CCN(C(=O)CSc2nnc(CSc3ncccn3)n2C)CC1	>57	-5.8%
Cc1ccc2c(c1)c(C)c(C)n2CC(O)CN1CCOCC1 (stereo not given)	>57	-17.7%
CCCc1ccc(OCc2ccc(C(=O)N3CCN(c4ccccn4)CC3)o2)c(OC)c1	>57	12.6µM*
CC(=O)N[C@@H](CC(C)C)C(=O)O	>57	8.5%[3.58 µM]
CCN(CC)CCCN1C(=O)C(=O)/C(=C(/O)c2ccc3c(c2)OCCO3)C1c1ccco1 (stereo not given)	>57	-10.5%
CCC(C)[C@H](NC(=O)NCC1CCCO1)C(=O)OC (stereo not given in full)	>57	-3.5%
N#Cc1ccccc1OC[C@H](O)CNCCNC(=O)Nc1ccccc1	>57	-14.5%
CN1CC(=O)N(CC(=O)Nc2ccc(F)cc2)c2ccccc2C1=O	>57	-4.2%
CCN1C(=O)[C@H]2[C@H]3[C@H](O)[C@H](O)C/C(=N/OC[C@@H](O)COCc4ccco4)[C@@H]3CC[C@@H]2C1=O	·	-1.7%&-18.8%[8 µM]
CCOC(=O)N1CCC(NC(=O)Cn2c3ccccc3c3cn[nH]c(=O)c32)CC1	>57	6.7%
COc1ccccc1CN1CC2(CCN(S(=O)(=O)c3ccccc3)CC2)C1	>57	-12.9%
CN1C[C@H](C(=O)N[C@]2(C)O[C@@]3(O)[C@H]4CCCN4C(=O)[C@H](Cc4ccccc4)N3C2=O)C[C@H]2c3cccc4[nH]cc(c34)C[C@@H]21	>57	?
COc1ccc(NC(=O)CC2SC(=Nc3ccccc3)NC2=O)c(OC)c1 (stereo not given)	>57	12.3%
C=CC1=C(C)C2=Cc3c(C=C)c(C)c4[n]3[Sn+2][n]3c(c(C)c(CCC(=O)O)c3=CC3=NC(=C4)C(C)=C3CCC(=O)O)=CC1=N2	>57	-12.4%
O=C(Cn1ccsc1=NC(=O)c1ccco1)c1ccccc1	>57	?
COc1ccccc1Nc1nc(C)cc(C)c1C(N)=O	>57	-8.2%
Cc1ccc(-n2c(SCC(=O)OC(C)C)nnc2-c2ccccn2)cc1	>57	?
O=C(Cn1cc2c(n1)CCCC2)NCCCN1CCN(c2ccccc2F)CC1	>57	-12.0%
O=C(CCCc1nc(-c2ccc(Cl)cc2)no1)Nc1cccnc1	>57	-18.9%
SMILES	Prx2 Sm inh	LT uptake inh
COc1cc2c(cc1OC)-c1c(O)c(OC)cc3c1[C@@H](C2)N(C)CC3	>57	-36.3%
O=C(CCSc1ccccc1)NC1CCCC1	>57	10.2%
CC(=O)C1C(c2ccc(F)c(F)c2)NC(=O)NC1(O)C(F)(F)F (stereo not given)	>57	-4.2%
CCOC(=O)Cn1nnnc1C(CC)N(Cc1cccs1)Cc1cc2ccc(OC)cc2[nH]c1=O (stereo not given)	>57	?
C=CCn1c(CNC(=O)c2ccccc2C)nnc1SCC(=O)NC1CCCC1	>57	·
CC(=O)Nc1nc2ccccc2n1CCN1CCOCC1	>57	-12.6%
CCc1noc(C)c1C(=O)N1CC(C)OC(C)C1 (stereo not given)	>57	-5.6%
O=C(Nc1ccccc1C(F)(F)F)N1CCC(N2CCCCC2)CC1	>57	6.1%
O=C1C(Cl)=C(Cl)C(=O)C(Cl)=C1Cl	·	?
Cc1ccc(NC(=O)c2cnccn2)c(OC(F)F)c1	·	4.2%
CC1(C)Cc2c(c(N3CCCC3)nc3sc4c(N5CCN(CCO)CC5)ncnc4c23)CO1	>57	?
CCC(C)NC(=O)C1c2cc(OC)c(OC)cc2C(=O)N(C)C1c1ccc(OC)cc1 (stereo not given)	>57	-11.7%
CC1(C)Oc2ccc(C(=O)N3CCCC3)cc2N(CC(=O)NCc2ccccc2)C1=O	>57	-3.4%
CC(=O)c1cccc(NC(=O)Cn2cc3c(n2)CCCC3)c1	>57	8.2%
COC(=O)c1ccc(OCC(O)Cn2nnc3ccccc32)cc1 (stereo not given)	>57	?
Cc1csc(SCC(=O)N2CCN(S(=O)(=O)c3ccc(Cl)cc3)CC2)n1	>57	11.1%
COc1ccc(Cl)cc1NC(=O)CN(c1ccccc1)S(=O)(=O)N(C)C	>57	-26.0%
O=C(Nc1ccc(-n2nncc2-c2ccco2)cc1)c1cccc(F)c1	>57	-5.2%
CC1CCc2c(C(=O)Oc3cccc(-n4cnnn4)c3)csc2C1 (stereo not given)	>57	?
CCOC(=O)C1CCN(C(=O)CNS(=O)(=O)c2ccc(Br)s2)CC1	>57	4.5%
O=C(CCc1nc2ccccc2[nH]1)Nc1ccc2c(c1)OCO2	>57	-7.4%
Cc1nnc(NC(=O)CSc2nnc(Cc3cccn3C)n2CCc2ccccc2)s1	>57	-5.0%
Cc1cccc(N(CC(=O)NC2CCCC2)C(=O)CCCC(=O)Nc2ccccn2)c1	>57	?
O=C(O)CCC(=O)N1CCc2cc(S(=O)(=O)N3CC=C(c4ccccc4)CC3)ccc21	>57	2.9%
COC(=O)NC(CC(C)=O)c1ccco1 (stereo not given)	·	-2.9%[8 µM]
SMILES	Prx2 Sm inh	LT uptake inh
O=C(CN1CCC(n2nnc3cc(F)ccc32)CC1)N1CCCc2ccccc21	>57	?
COc1ccc(C(=O)CSc2nnc(CNc3ccc(C)cc3C)n2Cc2ccco2)cc1	>57	?
COC(=O)[C@@H]1C[C@H]1[C@@H](NC(C)=O)c1ccccc1	>57	-4.4%
CCC(C)C(NC(=O)C1CCC(C)CC1)C(=O)NC(C(=O)OC)C(C)C (stereo not given)	>57	9.1%
CCCCOC(=O)C1[C@H]2C(=O)N(Cc3cccs3)C[C@]23C=C[C@H]1O3 (stereo not given in full)	>57	10.1%
Cn1c(=O)c2c(nc(NCCCN3CCOCC3)n2Cc2cccc(Cl)c2)n(C)c1=O	>57	-0.6%
FC(F)(F)c1ccc(-n2ccnc2)nc1	>57	4.3%
Cn1c(=O)cc(OCCCC(=O)NCc2ccco2)c2ccccc21	>57	-4.7%
CC1Cc2nc(SCC(=O)N3CCc4ccccc43)n(C)c(=O)c2S1 (stereo not given)	>57	-5.5%
Cc1cc(C)c(S(=O)(=O)N(C)CC(=O)N2CCCCC2)c(C)c1	>57	6.2%
Cc1cc(C(=O)OCC(=O)Nc2cc(C(F)(F)F)ccc2N2CCOCC2)c(C)o1	>57	?
Nc1nnc(N2CCc3ccccc32)s1	>57	16.9%
Cc1cc(NC(=O)c2cncc(Br)c2)n(-c2ccccn2)n1	>57	1.6%
COC(=O)[C@@]1(Cc2ccccc2)[C@H]2c3cc(C(=O)N(C)C)n(Cc4ccc(O)c(OC)c4)c3C[C@H]2CN1C(=O)c1ccccc1	>57	-2.7%
COc1cc(NS(=O)(=O)c2ccc(NC(=O)COc3ccccc3Cl)cc2)nc(OC)n1	>57	-15.6%
Cc1ccc(C2CC(c3cccc(Br)c3)n3nc(N)nc3N2)cc1 (stereo not given)	>57	3.8%
O=C(CN1CCC(O)(c2ccc3c(c2)OCO3)CC1)N1CCOCC1	>57	-2.3%
CN(Cc1ccccc1)Cc1nc2c([nH]1)c(=O)n(C)c(=O)n2C	>57	-0.9%
CNC(C(=O)c1ccccc1)C(OC)c1ccccc1 (stereo not given)	>57	-6.7%
c1ccc(Cn2c(-c3cccs3)nc3nc4ccccc4nc32)cc1	>57	?
N#Cc1c(N)nc2c(c1N)CC(=O)N2c1ccccc1-c1ccccc1	>57	6.2%
COC(=O)N1CCC2(CCN(CC(C)C)CC2)CC1	>57	?
CCCCCC(=O)N1CCN(CCN=CC2=C(O)CC(c3ccc(OC)cc3)CC2=O)CC1 (stereo not given)	>57	·
C/C(=C\[C@@H](NP(=O)(c1ccccc1)c1ccccc1)c1ccccc1)CO[Si](c1ccccc1)(c1ccccc1)C(C)(C)C	·	-13.2%
COCCn1c(SCc2nnc(-c3ccccc3)o2)nc2sc3c(c2c1=O)CCC3	>57	7.3%
SMILES	Prx2 Sm inh	LT uptake inh
CCCc1[nH]nc2c1C1(C(=O)N(C(C)C)c3ccccc31)C(C#N)=C(N)O2 (stereo not given)	>57	?
CC(=O)c1ccc(N2CCN(C(=O)C3CCN(S(=O)(=O)Cc4ccccc4)CC3)CC2)cc1	>57	-11.1%
N#CCCSCc1ccc2oc(C(=O)O)cc2c1	>57	15.7%
O=C(CSCC(=O)N1CCCCC1)OCC(=O)c1c[nH]c2ccccc12	>57	14.9%
CCc1c(O)nc(SCC(=O)N2CCCCC2)n(-c2ccccc2C)c1=O	·	6.1%
NCCNC(=O)c1ccc(Cl)cc1	>57&>57	-11.8%&-7.1%
O=C(O)C(=Cc1ccc(-c2ccccc2)cc1)C(=O)O	>57	-2.5%[8 µM]
COc1ncc2ncc(=O)n(C)c2n1	>57	-1.1%
COc1cccc(-c2nc(CS(=O)(=O)CC(=O)N3CCN(C)CC3)c(C)o2)c1	>57	7.3%
CC(C)C(=O)c1c(C(C)C)nn2ccccc12	>57&>57	-3.7%&-2.2%
O=C(C1CC1)N1CCN=C1SCc1cccc(F)c1	>57	19.4%
Cc1ccc(Nc2nc(C3CC3)cs2)cc1	>57	-29.4%
Cc1cc(C)nc(N2CCN(c3nc(C)nc4c3oc3ccccc34)CC2)n1	>57	7.0%
Cc1ccc2nc(/C(C#N)=N/O)[nH]c2c1	?	25.9%
Oc1c(C(c2ccccc2)N2CCN(Cc3ccccc3)CC2)sc2ncnn12 (stereo not given)	>57	-0.6%
CN=C(NC#N)SCC(=O)c1ccc(Cl)cc1Cl	>57	-14.8%
Cc1ccc(-n2ncc3c(N4CCN(c5ccc(F)cc5)CC4)ncnc32)c(C)c1	>57	1.7%
O=C(Cn1cnc2c(nnn2Cc2ccc(F)cc2)c1=O)NCc1ccco1	>57	-16.7%
CCN(CC)C(=O)Oc1ccc(NC(C)=O)cc1	·	-8.2%
c1ccc2c(Nc3ccncc3)nc(-c3ccc4c(c3)OCO4)nc2c1	>57	?
N#CC1=C(SCC(=O)NC2CCCCC2)NC(=O)CC1c1ccco1 (stereo not given)	>57	2.8%
Cc1ccc(C(=O)c2ccc(CC(=O)O)n2C)cc1	>57	-13.9%[3.58 µM]
COC(=O)Cn1cnc2sc(C)c(S(=O)(=O)N3CCC(C)CC3)c2c1=O	>57	15.1%
Cc1ccc(S(=O)c2ccc(C)cc2)cc1	>57	-12.9%
CC(NS(C)(=O)=O)C(c1cccs1)N1CCN(c2ccccc2F)CC1 (stereo not given)	>57	-12.1%

Entries of single compounds as entered above. Values in the order: Prx2 Sm inh	LT uptake inh
`O=C(Cn1cnc2c(nnn2Cc2ccc(F)cc2)c1=O)NCc1ccco1` as listed: >57	-16.7%
`C/C(=C\[C@@H](NP(=O)(c1ccccc1)c1ccccc1)c1ccccc1)CO[Si](c1ccccc1)(c1ccccc1)C(C)(C)C` as listed: ·	-13.2%
`CCCc1ccc(OCc2ccc(C(=O)N3CCN(c4ccccn4)CC3)o2)c(OC)c1` as listed: >57	12.6µM*
`CCCc1[nH]nc2c1C1(C(=O)N(C(C)C)c3ccccc31)C(C#N)=C(N)O2` (stereo not given) as listed: >57	?
`Cc1ccc2nc(/C(C#N)=N/O)[nH]c2c1` as listed: ?	25.9%

(continued)
SMILES	Prx2 Sm inh	LT uptake inh
O=C(c1cccc(F)c1)N1CCC2(CC1)CN(c1ccccc1)C2	>57	19.7%
COc1ccccc1N1CCN(C(c2cccs2)c2nnnn2C2CCCC2)CC1 (stereo not given)	>57	-5.8%
COc1ccc(OC)c(NC(=O)C2CCN(S(C)(=O)=O)CC2)c1	>57	-15.4%
CC1=C(C(=O)NCc2ccccn2)C2(CCC(C)CC2)OC1=O (stereo not given)	>57	0.2%
COc1ccc(-c2nc(C(N)=O)c3[nH]c(=O)n(-c4cccc(Cl)c4)c3n2)cc1OC	>57	-1.8%
CN1CCc2c(cc(O)c(O)c2Cl)[C@H](c2cccc(Cl)c2)C1	>57	1.3%
COc1ccc2[nH]c3c(=O)n(CCCCC(=O)N4CCCC4)c(=S)[nH]c3c2c1	>57	5.6%
CCOC(=O)Cc1csc(NC(=O)c2ccc(C)o2)n1	>57	-12.6%
Cc1cc(C)n2nc(SCC(=O)N(C)c3ccccc3)nc2n1	>57	4.9%
CCC(C)NC(=O)C1CCN(c2nc(C)cc(C)n2)CC1 (stereo not given)	>57	11.4%
COc1cccc(-c2nc(CSCC(=O)N3CCc4ccccc43)c(C)o2)c1	>57	8.8%
O=C(NCCCNC(=O)c1ccccn1)c1ccccn1	>57	-2.7%
O=C(NC1CCN(Cc2ccccc2)CC1)C1CCN(S(=O)(=O)c2cccc3cccnc23)CC1	>57	-4.7%

In the list so far, 3 contain bromine:
SMILES	Prx2 Sm inh	LT uptake inh
CCOC(=O)C1CCN(C(=O)CNS(=O)(=O)c2ccc(Br)s2)CC1	>57	4.5%
Cc1cc(NC(=O)c2cncc(Br)c2)n(-c2ccccn2)n1	>57	1.6%
Cc1ccc(C2CC(c3cccc(Br)c3)n3nc(N)nc3N2)cc1 (stereo not given)	>57	3.8%
